# From PubChem
# Menin-MLL FL inh: qHTS Assay for Inhibitors Targeting the Menin-MLL Interaction in MLL Related Leukemias: Competition With Fluorescein Labeled MLL-derived Peptide; Fluorescence polarization, fluorescein-MLL peptide displacement from menin; FP activity change, % at 61.4 µM; 290,000 tested, under 10 active; AID 1766, 2009; inconclusive = falling polarisation curve, or a change in total fluorescence; inactive = total fluorescence flat and polarisation flat or rising; no compound was filed as active; the % refers to the polarisation; negative = inhibition;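 note: % of control where 0% means no effect; inhibitors lower the polarisation; unlabelled MLL peptide was the positive control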
# TRPV1 PAM: HTS Assay for Compounds that Act as Potentiators of the Vanilloid Receptor 1; TRPV1-expressing cells, Fluo-8 calcium influx, capsaicin EC20 potentiation; host cell line not named in the record; control for the full effect not named in the record; Transient receptor potential cation channel subfamily V member 1 (Homo sapiens), Q8NER1; AID 540277, 2011; potentiation, % at 8.33 µM; 320,000 compounds, 0.02% hits; active means potentiation above 80%; inconclusive means 30% to 80%; inactive means below 30%; note: 0% is about no effect
#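 Cells expressing TRPV1 were dye-loaded with Fluo-8 and read kinetically: 10 s baseline, 3 min after compound (agonist portion), then 2 min after EC20 capsaicin (allosteric enhancer portion). Calcium-bound dye fluorescence at 480/520 nm.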
# ClpP mod: qHTS Assay for Activators of ClpP; ATP-dependent Clp protease proteolytic subunit (Bacillus subtilis (strain 168)), P80244; purified B. subtilis ClpP, FRET peptide cleavage, 20 min; Potency, µM (doses to about 57.5 µM), for the others: at the highest dose activity change, negative = active; 340,000 compounds, 1.9% hits; active = well fitted falling curve with a large enough effect; inconclusive = small, poorly fitted or top-dose-only effect; inactive = no such curve, though single readings can be large or run the other way; note: potency is the fitted concentration of half-maximal effect; the source files actives as falling curves though it sought activators and does not explain the sign; nearly all actives have a fitted effect of over 65% in size; many hits overshoot -100%
# Target sequence (P80244 whole entry, looked up): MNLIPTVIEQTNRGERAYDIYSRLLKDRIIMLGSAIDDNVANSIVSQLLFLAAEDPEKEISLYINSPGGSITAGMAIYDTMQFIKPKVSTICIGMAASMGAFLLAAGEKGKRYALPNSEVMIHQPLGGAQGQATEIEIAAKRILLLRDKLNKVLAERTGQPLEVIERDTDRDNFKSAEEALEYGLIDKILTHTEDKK
#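 ClpP 10 microg/mL final, pH 8 Tris/KCl buffer with BSA, glycerol, Tween-20; compound pinned in; FRET-FV substrate; RT 20 min; Ex320/Em430; ΔFRET vs ADEP 5.8 microM, DMSO, no enzyme.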
# Sfp PPTase inh: qHTS Assay for Inhibitors of Bacillus subtilis Sfp phosphopantetheinyl transferase (PPTase); 4'-phosphopantetheinyl transferase ffp (Bacillus subtilis), Q9F4F7; Biochemical Sfp PPTase activity, qHTS; Potency, µM, for inactives: max response, negative = inhibition, most hits filed as inhibitors; 310,000 compounds, 3.5% hits; active = well fitted inhibition curve with a large enough effect; inconclusive = small, poorly fitted or top-dose-only effect, or another doubt; inactive = no such curve, though single readings can be large or run the other way;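 note: the enzyme is Sfp with the accession as filed and its product quenches rhodamine fluorescence; potency is the fitted concentration of half-maximal effect; 0% = enzyme reaction without inhibitor and -100% = no enzyme wells; top concentration of the series not given in the record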
#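 Reaction rates are the 30-min fluorescence difference (ex 525, em 598 nm) in wells containing 15 nM Sfp, 5 uM rhodamine-CoA and 12.5 uM BHQ-2-YbbR at pH 7.6 with 10 mM MgCl2.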
# TRPML1 ag: qHTS for Agonists of the Human Mucolipin Transient Receptor Potential 1 (TRPML1); TRPML1-expressing cells, Ca2+ dye fluorescence, FDSS; host cell line not named in the record; reference of the full effect not given here; activation, % (concentration not given with the values); 410,000 compounds, 0.12% hits; in the data active = activation above about 50%; inconclusive = about 30% to 50%; inactive = below about 30%; note: 0% is about no effect; the text of the record puts the active cut at 80%
# Target sequence (Q9GZU1 whole entry, looked up): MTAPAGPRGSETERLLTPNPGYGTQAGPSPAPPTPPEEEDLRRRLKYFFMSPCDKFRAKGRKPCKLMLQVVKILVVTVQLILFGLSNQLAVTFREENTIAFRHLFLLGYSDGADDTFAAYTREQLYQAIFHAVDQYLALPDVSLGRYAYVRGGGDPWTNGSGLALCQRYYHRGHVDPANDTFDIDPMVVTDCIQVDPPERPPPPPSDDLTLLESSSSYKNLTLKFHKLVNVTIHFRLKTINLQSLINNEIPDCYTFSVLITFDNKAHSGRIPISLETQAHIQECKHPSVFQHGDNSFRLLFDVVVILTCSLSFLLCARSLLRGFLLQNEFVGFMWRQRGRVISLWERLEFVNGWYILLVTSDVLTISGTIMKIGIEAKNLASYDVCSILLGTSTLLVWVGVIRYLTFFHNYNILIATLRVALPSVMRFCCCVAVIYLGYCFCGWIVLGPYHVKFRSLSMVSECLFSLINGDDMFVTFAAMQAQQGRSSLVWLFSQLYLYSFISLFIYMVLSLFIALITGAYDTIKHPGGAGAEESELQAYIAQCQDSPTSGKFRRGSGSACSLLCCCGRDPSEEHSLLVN
#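 Tet-induced TRPML1-DL cells, 1,500 per well, cultured overnight, were loaded with a no-wash Ca2+ dye for 45–90 min. Calcium fluorescence was recorded on the FDSS for 110 s after compound addition, before the EC80 agonist (4 uM 54-4) was added.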
# TRPML1 inh: qHTS for Inhibitors of the Human Mucolipin Transient Receptor Potential 1 (TRPML1); TRPML1-inducible cells, Ca2+ dye fluorescence, FDSS; active compounds read low; inhibition of EC80 agonist-evoked calcium signal; AID 624415, 2012; activity change, negative = inhibition, % (concentration not given with the values); 390,000 compounds, 0.02% hits; in the data active means activity change below about -50%; inconclusive means about -30% to -50%; inactive means above about -30%;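 note: stimulus is agonist 54-4 at its EC80 concentration; % is set by controls: 0 for no effect and ±100 for the full control effect; the text of the record puts the active cut at -80%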
#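 Tet-induced TRPML1-DL cells loaded with Ca8 no-wash calcium dye were read kinetically on FDSS. Compound addition was followed by EC80 agonist 54-4 (4 uM final); inhibition was read over 110 s.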
# PINK1 expr mod: A Quantitative High throughput Screen to Identify Chemical Modulators of PINK1 Expression. PINK1 immunofluorescence, high-content cytometry, 24 h. Potency, µM (highest dose often 76.6 µM), for inactives: top-dose activation (PINK1 increase), hits mostly activators. 410,000 compounds, 0.2% hits. AID 624263, 2012; active = well fitted activation curve with a large enough effect; inconclusive = small, poorly fitted or top-dose-only effect; inactive = flat fitted curve, though single readings scatter; cell line not stated here;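 note: potency is the fitted concentration of half-maximal effect; % of control where 0% means no effect; nearly all actives have a fitted effect of over 65% in size; a mitochondrial uncoupler was the plate control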
#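 Measures PINK1 amount and localization on or inside mitochondria by immunofluorescence. Stable cells get compounds at 5 concentrations for 24 hours before fixation and staining; CCCP controls included.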
# Starred values were filed as active, the others as inactive; ? = inconclusive; / = not tested or not shown; & = joins results of further samples; [ ] = another dose, or the depositor's remark. Rows are unselected (roughly 4.4% active in at least one column).
mol	Menin-MLL FL inh	TRPV1 PAM	ClpP mod	Sfp PPTase inh	TRPML1 ag	TRPML1 inh	PINK1 expr mod
CC(C)NC(=O)N1CCC2(CC1)CCN(C(=O)c1cccc(F)c1)CC2	-0.9	/	/	6%	/	/	-0.7%
Cc1nn(C)c(C)c1/C=N/O	-0.4	2	0.7%	16%	-0.6	1	2.5%
CCN(CCNC(=O)CCCn1nc(C)n2c(cc3sccc32)c1=O)c1ccccc1	-0.5	4	0.1%	-2%	0.4	-5	0.1%
CCc1nc2ccc(C(=O)NCc3ccccc3OC)cn2c1N(CC)CCN(C)C	/	/	-3.5%	/	-0.8	/	-0.3%
COc1cccc(Cn2c(=O)cnc3cnc(OC)nc32)c1	15	/	/	8%	/	/	0.0%
COc1ccc(/C=C2\CCc3ccccc3C2=O)cc1OC	6.2	-6	1.8%	-16%	0.5	-5	-1.3%
COc1cc(OC)c(C2Nc3c(C)cccc3-c3cc(C)nn32)cc1OC (centres undefined)	/	/	?	/	-0.7	12	1.5%
COc1ccc2nc3c(cc2c1)c(NC(=O)c1cccs1)nn3CC(C)C	-1.1	-6	-20%	3%	1.0	-13	0.5%
COc1cc(C)ccc1OCCCCOc1ccccc1C(C)=O	/	5	-3.3%	-14%	3.2	-21	0.7%
NC(=O)COc1ccc(/C=N\NC(=O)c2ccc(-c3ccccc3)cc2)cc1	/	-3	10µM*	-7%	-0.2	19	-0.5%
COc1ccc(NC(=O)c2cccc(S(=O)(=O)NCc3ccco3)c2)c(OC)c1	/	3	/	/	2.2	9	2.0%
CN(c1ccc(C(=O)NC2CC2)cc1)S(=O)(=O)c1ccccc1	3.0	-4	-0.9%	-8%	-0.2	9	-1.1%
Cc1cccc(N2CCN(S(=O)(=O)c3c(C)nc4scc(C)n4c3=O)CC2C)c1 (centres undefined)	-0.5	-18	?	12%	0.9&0.4	8&3	0.6%&-1.8%
O=C(NCc1ccccc1)c1nc[nH]c1C(=O)N1CCN(c2ccccc2)CC1	/	15	1.4%	/	-0.3	6	1.9%
Cc1ccc(Cn2c(C(=O)O)c(CNCc3ccc(C)o3)c3ccc(C)cc32)cc1	/	/	-16%	/	0.5	4	1.2%
c1ccc(-c2cn3c(n2)CCC3)cc1	0.1	5	-11%	6%	-0.3	-1	0.2%
CCC(=O)Nc1sc2c(c1C#N)CCCCC2	0.6	-12	0.5%	0%	2.1	0	-1.4%
O=C(Nc1ccncc1)c1cc(F)cc(F)c1	6.2	18	-12%	-9%	0.6	0	1.1%
Cc1ccc(-c2cc(Cc3ccc(F)cc3)c(=O)[nH]n2)cc1	7.7	-16	2.8%	13%	1.4	0	4.7%
c1ccc(-n2ncc3c2ncn2nc(-c4ccco4)nc32)cc1	3.4	-5	-11%	-23%	-0.1	5	/
O=C(NCCSCc1c(F)cccc1Cl)Nc1ccccc1	0.2	17	/	3%	0.0	10	-1.9%
COc1ccc(/C=C/C(=O)c2cc3cccc(OC)c3oc2=O)cc1	?	-6	/	?	0.0	13	-0.1%
Cc1ccc(C(C(=O)NC2CCCCC2)N2CCCC2)cc1 (centres undefined)	4.6	8	-0.1%	-4%	0.9	32	-1.3%
CCN(CC)S(=O)(=O)c1cc(C(=O)OCC(=O)Nc2ccc(-c3nc4ccc(C)cc4s3)cc2)ccc1F	-0.6	3	18µM*	18%	0.5	-1	4.3%
Cc1ccc(CNC(=O)c2ccc(Cn3c(=O)c4ccccc4n(CC(=O)Nc4c(C)cc(C)cc4C)c3=O)cc2)cc1	/	/	-5.0%	/	0.2	-1	6.7%
COc1cc(NC(=O)c2sc3ncn(CC(=O)N4CCCCC4C)c(=O)c3c2C)cc(OC)c1OC (centres undefined)	/	/	2.0%	/	-0.4	5	-0.4%
CCn1c(SCC(=O)NC2CC2)nnc1-c1ccc(OC)cc1	/	-6	-0.8%	16%	0.0	-6	-1.4%
CC1CCCCN1C(=O)CN(C)S(=O)(=O)c1cccc2nsnc12 (centres undefined)	/	-2	/	8%	0.0	-4	3.5%
CCCCC(=O)N1C/C=C\C(c2ccc(OC)cc2)N(Cc2ccc(F)cc2)C(=O)[C@H]1Cc1ccccc1 (some centres undefined)	1.8	?	-12%	3%	0.9	70	3.3%
COc1ccc(CCNC(=O)C(=O)c2cn(CC(=O)N3CCCC3)c3ccccc23)cc1	/	/	-2.1%	/	-1.0	-3	0.0%

# Next section.
mol	Menin-MLL FL inh	TRPV1 PAM	ClpP mod	Sfp PPTase inh	TRPML1 ag	TRPML1 inh	PINK1 expr mod
Nc1[nH]n(-c2ccccc2)c(=O)c1N=Nc1ccccc1	3.0	-2	/	9%	3.5	31	9.5%
CC(C)OCCCN1CC(=O)N2C(c3cccc([N+](=O)[O-])c3)c3[nH]c4ccccc4c3C[C@H]2C1=O (some centres undefined)	0.6	?	0.0%	10%	/	/	0.8%
CCOC(=O)CNC(=O)CSc1nc(N(C)C)nc(N2CCOCC2)n1	-0.6	-7	1.4%	16%	0.7	6	0.3%
CC(=O)c1cccc(NC(=O)NC(C)c2ccncc2)c1 (centres undefined)	1.5	0	-9.5%	17%	-0.3	-9	28%[38.3 µM]
CC(C)c1ccc(NC(=S)NN2C(C)CCCC2C)cc1 (centres undefined)	-1.4	-13	/	10%	0.9	9	-1.9%
O=C(Cn1nnc2ccccc2c1=O)Nc1cc(C(F)(F)F)ccc1N1CCOCC1	-2.5	-5	-2.3%	-4%	-0.3	-13	-1.0%
CN1C(=O)C(N=Nc2ccccc2C(=O)O)N(C)C1=S (centres undefined)	?	5	/	-10%	10	-2	-1.5%
CC(=O)NCCNc1nc2cc(-c3cc(F)ccc3C)sc2c(=O)n1C	/	/	-8.8%	/	-0.1	/	1.1%
COc1ccc(C)cc1NC(=O)CCNS(=O)(=O)c1cccc(C(F)(F)F)c1	-0.1	6	/	4%	1.8	9	-0.3%
Cc1cc(OC(F)F)ccc1NC(=O)Nc1ccc([N+](=O)[O-])cc1	1.7	-20	?	1%	0.5	-2	?
COC(=O)c1ccc(NC(=O)CN(CCc2ccccc2)S(=O)(=O)c2ccc(OC)cc2)cc1	/	/	-4.6%	/	-0.3	-17	-1.1%
O=C(COc1ccc(S(=O)(=O)Nc2ccccc2)cc1)NCc1ccccn1	/	8	0.8%	6%	-0.2	0	-0.5%
O=C(Cc1ccccc1)Nc1ccc2oc(-c3ccncc3)nc2c1	1.1	20	?	-12%	-0.3	27	7.0%
Cn1c(=O)[nH]c(=O)c2c1nc1n2CCCN1Cc1ccccc1	-2.9	3	-0.7%	9%	2.5	4	-0.3%
CCN1CCC(NC(=O)Nc2ccc(F)cc2)CC1	-0.3	2	0.2%	18%	0.1	15	1.6%
O=C(Cc1cccc2ccccc12)Nc1ccccc1C(=O)O	2.0	?	-21%	10%	-1.0	-13	-0.6%
Cn1c(=O)c([N+](=O)[O-])c(NCC(O)c2ccccc2)c2ccccc21 (centres undefined)	/	-30	1.1%	-12%	1.3	-14	-0.8%
O=C(CN1CCN(Cc2ccc(Cl)cc2)CC1)N1CCc2ccccc21	3.7	-11	/	3%	-0.5	6	1.3%
COc1cc(NC(=O)COc2ccc(Cl)cc2)ccc1-c1cc2ccccc2oc1=O	1.5	8	-22%	-3%	-0.3	8	9.3%
CC1(C)CC(=O)C(C=NC2CC(C)(C)NC(C)(C)C2)=C(O)C1	-1.0	-4	0.7%	12%	-0.2	23	-2.9%[38.3 µM]
COc1ccc(-c2noc(CCC(=O)NCCCN3CCN(c4ccccc4F)CC3)n2)cc1	1.9	-3	0.1%	9%	0.1	-2	1.7%
CC(C)(C)NC(=O)NC(=O)CN1CCN(c2ccccc2)CC1	-4.4	8	2.2%	15%	1.2	?	0.8%
NS(=O)(=O)c1ccc(CCNC(=O)Cc2ccc(S(=O)(=O)N3CCOCC3)s2)cc1	/	7	-2.4%	/	-0.3	6	1.1%
COc1ccccc1C(=O)COC(=O)CNS(=O)(=O)c1ccc(NC(C)=O)cc1	/	-2	51%	2%	-0.3	-4	-2.6%
CCOC(=O)c1ccc(NC(=S)NN2CCOCC2)cc1	2.6	-20	1.2%	-11%	0.4	4	-0.2%
O=C(COC(=O)CN1C(=O)C2CCCCC2C1=O)NC1CCS(=O)(=O)C1 (centres undefined)	3.0	3	-1.7%	2%	-0.5	-1	1.7%
CCOc1ccc(NS(=O)(=O)c2ccc3[nH]cc(C(=O)NC4CCCC4)c(=O)c3c2)cc1	/	/	-14%	/	1.7	5	?
Cc1ccc(N(CC(=O)NCc2ccco2)C(=O)CCC(=O)Nc2nccs2)cc1	-2.2	0	/	6%	-0.2	-23	1.6%
O=C(NCC(=O)N1CCCCCCC1)c1cccc([N+](=O)[O-])c1	/	-14	-1.5%	/	1.5	30	-1.2%
Cc1cc(C(F)F)n2nc(C(=O)NCc3ccccc3F)nc2n1	3.4	11	-4.1%	9%	1.4	-19	-1.2%
CCCCNCCOCCOc1ccc(F)cc1	-0.3	-7	3.2µM*	-5%	-0.4	38	-0.2%
COC(=O)C1CCN(C(=O)c2cc(-c3ccc(Cl)s3)nc3ccccc23)CC1	/	-6	3.5%	/	0.6	22	3.9%

# Two compounds from above, reduced to TRPML1 ag.
SMILES,TRPML1 ag
CCOC(=O)CNC(=O)CSc1nc(N(C)C)nc(N2CCOCC2)n1,0.7
CC(=O)c1cccc(NC(=O)NC(C)c2ccncc2)c1 (centres undefined),-0.3
